Assay outcomes (PubChem BioAssay)
ClpP mod – qHTS Assay for Activators of ClpP | purified B. subtilis ClpP, FRET peptide cleavage, 20 min | ATP-dependent Clp protease proteolytic subunit (Bacillus subtilis (strain 168)), P80244 | Potency, µM (top dose mostly 57.5 µM), for the others: at the top dose activity change, negative = active | AID 651965, 2013 | 340,000 tested, 1.9% active; active = well fitted falling curve with a large enough effect; inconclusive = small, poorly fitted or top-dose-only effect; inactive = no such curve, though single readings can be large or run the other way; further: potency means the concentration at half of the fitted maximal effect; the source files actives as falling curves though it sought activators and does not explain the sign; nearly all actives have a fitted effect of over 65% in size; many hits overshoot -100%
Target sequence (P80244 whole entry, looked up): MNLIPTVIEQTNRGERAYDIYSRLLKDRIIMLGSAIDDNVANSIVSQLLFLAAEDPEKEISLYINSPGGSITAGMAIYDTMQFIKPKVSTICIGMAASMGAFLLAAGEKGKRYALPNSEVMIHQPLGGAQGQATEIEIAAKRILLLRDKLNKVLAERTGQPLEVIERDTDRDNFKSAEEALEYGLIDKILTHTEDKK
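Buffer: 100 mM Tris/HCl pH8, 100 mM KCl, 0.05% low protease BSA, 2.5% glycerol, 0.01% Tween-20. ClpP 10 microg/mL final; 20 min RT; delta FRET normalized to ADEP and DMSO controls.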
TRPML1 agonist – human mucolipin-1 channel agonism | Q9GZU1 | TRPML1-expressing cells, Ca2+ dye fluorescence, FDSS; host cell line not named in the record; reference of the full effect not given here | activation, % (concentration not given with the values) | 410,000 tested, 0.12% active | AID 624414; in the data active = activation above about 50%; inconclusive = about 30% to 50%; inactive = below about 30%; further: 0% is about no effect; the text of the record puts the active cut at 80%
Target sequence (Q9GZU1 whole entry, looked up): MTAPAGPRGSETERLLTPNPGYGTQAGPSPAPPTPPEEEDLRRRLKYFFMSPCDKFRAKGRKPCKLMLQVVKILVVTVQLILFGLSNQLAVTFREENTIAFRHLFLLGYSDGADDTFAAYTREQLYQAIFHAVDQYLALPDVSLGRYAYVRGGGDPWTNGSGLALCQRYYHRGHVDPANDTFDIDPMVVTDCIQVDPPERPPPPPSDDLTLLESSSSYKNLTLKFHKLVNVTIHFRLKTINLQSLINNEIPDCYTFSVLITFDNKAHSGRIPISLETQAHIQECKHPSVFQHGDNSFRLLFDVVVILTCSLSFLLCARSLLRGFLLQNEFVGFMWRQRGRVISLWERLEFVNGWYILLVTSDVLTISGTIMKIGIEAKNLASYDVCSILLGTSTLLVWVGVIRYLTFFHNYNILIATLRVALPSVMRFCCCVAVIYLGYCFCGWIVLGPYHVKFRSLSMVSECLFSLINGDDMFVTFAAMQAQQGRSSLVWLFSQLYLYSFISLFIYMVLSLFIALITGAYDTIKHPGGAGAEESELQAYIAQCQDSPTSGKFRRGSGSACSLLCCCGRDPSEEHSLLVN
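Agonist activity was taken from a 110 s kinetic Ca2+ dye read on the FDSS after pinning compounds onto TRPML1-DL cells. The cells were seeded at 1,500/well with Tet inducer, incubated about 16 h, then dye-loaded at room temperature.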
Active calls of the source: *; ? = inconclusive. The list is partial. The share of hits here may be higher or lower than overall.

structure,TRPML1 agonist,ClpP mod
CC1(C(=O)Nc2ccc3c(c2)OCCO3)CCN1Cc1ccccc1OC(F)F (stereo not given),-0.4,-0.4%
N#Cc1ncc(Br)cn1,-0.3,1.5%
CCCCC1Cc2[nH][nH]c(=O)c2C(c2ccc(F)cc2)O1 (stereo not given),-0.1,2.8%
N#Cc1cccc(NC(=O)c2cc(C3CCCCN3C(=O)c3ccccn3)on2)c1 (stereo not given),-0.1,-1.2%
O=S1(=O)CCOCCCN1Cc1cccc(Cl)c1,-0.8,-1.1%
O=C(COC(=O)c1ccccc1Oc1ccccc1)Nc1ccc(Br)cc1,-1.0,0.6%
c1ccc2sc(-n3cc(C4CCCCC4)nn3)nc2c1,0.5,-0.9%
CCCCOCCCNC(=O)C[C@@H]1C[C@@]2(C(=O)OCC)CCC=C2N(Cc2ccco2)C1=O,-0.3,-0.9%

Reprinted from the part before: seven entries, followed by the next part.
structure,TRPML1 agonist,ClpP mod
N#Cc1ncc(Br)cn1,-0.3,1.5%
CCCCC1Cc2[nH][nH]c(=O)c2C(c2ccc(F)cc2)O1 (stereo not given),-0.1,2.8%
N#Cc1cccc(NC(=O)c2cc(C3CCCCN3C(=O)c3ccccn3)on2)c1 (stereo not given),-0.1,-1.2%
O=S1(=O)CCOCCCN1Cc1cccc(Cl)c1,-0.8,-1.1%
O=C(COC(=O)c1ccccc1Oc1ccccc1)Nc1ccc(Br)cc1,-1.0,0.6%
c1ccc2sc(-n3cc(C4CCCCC4)nn3)nc2c1,0.5,-0.9%
CCCCOCCCNC(=O)C[C@@H]1C[C@@]2(C(=O)OCC)CCC=C2N(Cc2ccco2)C1=O,-0.3,-0.9%
CCCCCCCCN1[C@@H](CC(C)=O)c2ccc(/C=C/C(C)=O)cc2S1(=O)=O,-0.2,0.2%
N#Cc1ccc(S(=O)(=O)N2CCCCC2c2cc(C(=O)NCc3cccnc3)no2)cc1 (stereo not given),-0.9,0.9%
COCCNC(=O)c1cccc2c(-c3cccc(C(N)=O)c3)coc12,-0.5,-20%
O=C(Nc1nnc([C@@H]2C[C@H](O)[C@@H](CO)O2)s1)c1cccc(C(F)(F)F)c1,0.3,-2.1%
Cc1cccc(C)c1-n1nnnc1C1(C)CCC(=O)N1CCc1ccccc1F (stereo not given),-0.9,1.0%
CCOC(=O)C1(C)CCCN1C(=O)c1ccccc1F (stereo not given),-1.0,1.8%
CC(C)C[C@H]1CN([C@@H](CC(C)C)CN2CCC[C@H]2CN2C(=O)C(=O)NC[C@@H]2Cc2ccc(O)cc2)C(=O)C(=O)N1CCc1ccccc1,-0.7,0.2%
Cc1ccc(-c2cc(NC=O)c3ncc(-c4cccc(C(=O)N(C)C)c4)n3c2)cc1,-0.2,-26%

(further entries)
structure,TRPML1 agonist,ClpP mod
CCCCn1nnnc1C1(C)CCC(=O)N1CCc1ccc(OC)c(OC)c1 (stereo not given),-0.9,-2.1%
CC(C)C[C@H]1CNC(=O)C(=O)N1C[C@H]1CCCN1C[C@H](Cc1ccc(O)cc1)N1C[C@H](CC(C)C)N(CC2CCCCCC2)C(=O)C1=O,0.2,1.0%
O=C(Nc1cccc(OC(F)(F)F)c1)[C@@H]1O[C@H](CO)[C@H](O)[C@H](O)[C@H]1O,-0.3,-0.7%
Cc1ccc(F)cc1C(=O)N1CCCC1(C)C(=O)NCC(C)C (stereo not given),-0.6,1.2%
CC(=O)OC[C@@H]1CN(Cc2ccccc2)C[C@H](n2cnc3c(N4CCN(c5ccccc5)CC4)ncnc32)O1,-0.3,?
CC(C)C[C@H]1COc2cc(N3CCN(Cc4ccccc4F)CC3)ccc2S(=O)(=O)N1,-0.5,-2.6%
COc1cc(CNC(=O)c2cc(-c3cc(F)ccc3OC(C)C)n[nH]2)cc(OC)c1,-0.1,?
Cc1c(C2(c3cc(C(C)C)c(O)c(Br)c3C)OS(=O)(=O)c3ccccc32)cc(C(C)C)c(O)c1Br,-0.8,-2.3%

New compounds follow:
structure,TRPML1 agonist,ClpP mod
OCc1ccccc1-c1nc(NCc2ccccc2)nc2ccsc12,-0.7,4.6%
CSC(=NS(=O)(=O)c1ccccc1)NNC(=O)c1c(-c2c(Cl)cccc2Cl)noc1C,-0.8,-0.6%
COC(=O)[C@]12CCCCC=C1N(Cc1ccccc1)C(=O)[C@H](CC(=O)NCCC(C)C)C2,-0.3,-0.4%
Cc1cc2nc(C3CCCCC3)c(CC(C)(C)C)n2c(C)c1Br,-0.5,-1.5%
CCOC(=O)C1(C)CCN1C(=O)c1ccc(C#N)cc1 (stereo not given),-0.5,1.3%
O=C(NCc1ccncc1)[C@@H]1CCCN1C(=O)[C@@H]1CCCN1C(=O)c1ccccc1Cl,-0.1,-1.5%
Cn1cnc(S(=O)(=O)N2CCCCC2c2cc(C(=O)NCc3ccc(Cl)c(Cl)c3)no2)c1 (stereo not given),-0.4,-13%
COCCNC(=O)c1cc2c(c(-c3cccc(-c4cc5ccccc5o4)c3)n1)[C@H](CCO)N(S(=O)C(C)(C)C)C2 (stereo not given in full),-0.5,-25%

As a short view, part of the list above:
structure,TRPML1 agonist,ClpP mod
Cn1cnc(S(=O)(=O)N2CCCCC2c2cc(C(=O)NCc3ccc(Cl)c(Cl)c3)no2)c1 (stereo not given),-0.4,-13%
COCCNC(=O)c1cc2c(c(-c3cccc(-c4cc5ccccc5o4)c3)n1)[C@H](CCO)N(S(=O)C(C)(C)C)C2 (stereo not given in full),-0.5,-25%

Next results follow:
structure,TRPML1 agonist,ClpP mod
CC(C)(C)n1nnnc1C(c1ccccc1)N1CCN(c2c(Cl)cncc2Cl)CC1 (stereo not given),52*,-2.3%
COCCNc1nc(NCc2cccc(OC)c2)c2sc(-c3ccccc3)cc2n1,-1.0,?
Cc1ccc2c(c1)ncc[n+]2CC(=O)c1ccc(Cl)cc1Cl,-0.3,-8.2%
COc1cc(OC)nc(Nc2nc(C(C)N)cs2)n1 (stereo not given),-0.1,0.0%
Cc1noc(-c2ccccc2)c1NC(=O)Nc1ccc2nc([C@H]3C[C@H](O)[C@@H](CO)O3)[nH]c2c1,-1.0,-1.0%
CC(C)c1cc(Cn2c3ccccc3c(=O)n2C(C)C)on1,0.0,5.4%
CC(C)Cc1ccc(CN2C(C(C)C)C(=O)N(Cc3cn(CCC4OCCO4)nn3)CCS2(=O)=O)cc1 (stereo not given),-0.4,1.3%
CC(=O)Nc1cccc(-c2ccnc3c2CC(C)(C(=O)NCCc2ccccc2)O3)c1 (stereo not given),-0.9,-20%

Additional results follow.
structure,TRPML1 agonist,ClpP mod
CC1(c2nnnn2-c2ccc3c(c2)OCCO3)CCC(=O)N1CCCN1CCOCC1 (stereo not given),-0.5,-1.0%
CC1(Cc2cccc(C#N)c2)C(=O)Nc2c(Cl)cccc21 (stereo not given),-1.1,-2.9%
COc1cc2c(cc1OC)/C(=C/c1ccc(N(C)C)cc1)C=C2,0.8,0.5%
COc1cc2nc(Cl)nc(NC(C)C)c2cc1OC,-0.7,-15%
COC(=O)N1CCCCC1c1cc(C(=O)NCc2ccc(Cl)c(Cl)c2)no1 (stereo not given),-0.7,-2.2%
COc1cccc(-c2cc(NC=O)c3ncc(-c4cccc(C(=O)N(C)C)c4)n3c2)c1,-0.8,?
CC(C)(C(=O)N1CCC1(C)C(=O)NS(=O)(=O)c1ccccc1Cl)c1ccccc1 (stereo not given),-0.2,0.8%
COc1ccc(Cl)c(-c2cc(C(=O)NC(C)C)[nH]n2)c1,-1.2,1.8%

The listing continues:
structure,TRPML1 agonist,ClpP mod
COc1ccc(-c2cnc3c(NC=O)cc(-c4ccc(C(=O)N5CCOCC5)cc4)cn23)cc1OC,-1.4,-2.2%
Cc1cc(C)cc(Cn2cc(CN3CC(N4CCN(CCN(C)C)CC4)CS3(=O)=O)nn2)c1 (stereo not given),-0.5,0.1%
Cn1cc(-c2coc3c(C(=O)NCc4cccc(Cl)c4)cccc23)cn1,0.6,-17%
CCOC(=O)[C@]12CCC=C1N(CCC1=CCCCC1)C(=O)[C@H](CC(=O)N1CCCCC1)C2,-0.8,-0.2%
Cc1ccccc1[C@H](NC1c2ccccc2C=Cc2ccccc21)P(=O)(c1ccccc1)c1ccccc1,-0.2,-19%
Cc1ccc(-c2nc(=Nc3ccccc3)sn2-c2ccccc2)cc1,-0.6,0.1%
CN(C)c1ccc(-c2nn3c(-c4cc(-c5ccccc5)n[nH]4)nnc3s2)cc1,-0.9,?
Cc1ccccc1-c1csc(C(C)(O)c2ccccc2)n1 (stereo not given),-0.3,-0.5%

Later entries
structure,TRPML1 agonist,ClpP mod
COc1ccc(NC(=O)COc2ccccc2C(=O)Nc2ccccc2)cc1,-0.7,-0.5%
Cc1ccc(C(O)c2ncc(-c3cccc(F)c3)[nH]2)cc1 (stereo not given),-1.3,0.8%
CC(C)c1ccc(NC(=O)Nc2nc(C(N)CCc3ccccc3)cs2)cc1 (stereo not given),0.1,-0.5%
CSc1ccccc1NC(=O)C1(C)CCN1C(=O)Cc1ccc(Cl)cc1Cl (stereo not given),-0.6,-1.0%
Cc1cccc(-c2cnc(C(O)Cc3ccccc3)[nH]2)c1 (stereo not given),-0.9,0.5%
CCOC(=O)[C@]12CCC=C1N(Cc1ccccc1)C(=O)[C@H](CC(=O)NCc1cccs1)C2,-1.2,-2.7%
CCO/C(C)=N/Oc1cccc(N(C)C)c1,0.4,-2.5%
COc1cccc(Cn2cnc(-c3ccccc3OC)c2-c2cccnc2)c1,-0.3,-21%

More records follow:
structure,TRPML1 agonist,ClpP mod
N#Cc1ccccc1OCCCN1CCC(C(O)(c2ccccc2)c2ccccc2)CC1,3.5,0.4%
COc1ccc(F)cc1-c1cc(C(=O)NCc2ccc(F)cc2)[nH]n1,-0.7,-1.3%
CC1(C(=O)Nc2cccc3cccnc23)CCN1Cc1csc2ccccc12 (stereo not given),-0.7,3.8%
CC(C)[C@H](COC=O)NC(=O)[C@H]1O[C@@H](n2ccc(N)nc2=O)[C@H](O)[C@@H]1O,-0.6,-1.1%
CC[N+](C)(C(=O)O)/C(=C\c1ccccc1)c1ccnc2ccccc12 (stereo not given),?,0.7%
CCN(CCC#N)c1ccc(/C=C/c2ccnc3ccccc23)cc1,17,-1.4%
CCC(c1nnnn1-c1ccc2c(c1)OCCO2)N1CCN(C(C)=O)CC1 (stereo not given),-0.4,-1.7%
CCc1sc(-c2cc3ccc(O)cc3oc2=O)nc1-c1ccc(C)cc1,?,?

(further entries)
structure,TRPML1 agonist,ClpP mod
COC(=O)[C@@]1(Sc2ccc(C)cc2)CC(=O)N(c2ccc3c(ccn3C)c2)[C@@H]1c1ccccc1,-0.4,-0.7%
CC(C)C(C=Cc1ccccc1)=NNS(=O)(=O)c1ccccc1,-0.8,1.8%
CC(C)(C)c1ccc(CC(=O)N2CCC2(C)C(=O)NS(=O)(=O)c2cccc(C#N)c2)cc1 (stereo not given),0.2,-1.9%
O=C(Nc1ccc(Cl)c(C(F)(F)F)c1)C1Cc2c(-c3ccc4c(c3)OCO4)ccnc2O1 (stereo not given),-0.3,3.8%
Cc1cccc(CN2CCN(C3CN(C4CCCCC4)S(=O)(=O)C3)CC2)c1 (stereo not given),-0.3,-4.3%
Nc1c(Br)cc(/C=C2\C=Cc3ccccc32)cc1Br,-0.6,-1.4%
FC(F)(F)c1cccc(-c2cc3nc(NC4CCCCC4)ccn3n2)c1,0.4,4.5%
COc1ccccc1-c1ccc2c(c1)C(C)(Cc1ccccc1C#N)C(=O)N2 (stereo not given),-1.0,-1.4%

The results go on.
structure,TRPML1 agonist,ClpP mod
FC(F)(F)c1cccc(-c2cc3nc(NCCCn4ccnc4)ccn3n2)c1,0.1,4.5%
O=C(NC(c1ccccc1)c1cnccn1)C1CCN(CCOc2ccc(Cl)cc2Cl)CC1 (stereo not given),2.9,-3.6%
CCN(CC)c1ncnc2c1ncn2[C@H]1CN(Cc2ccco2)C[C@@H](CO)O1,-0.1,-3.5%
CC1(C(=O)NS(=O)(=O)c2ccc(C#N)cc2)CCN1C(=O)Cc1ccccc1Cl (stereo not given),-0.1,0.4%
Nc1cccc2cccnc12,-0.1,-2.3%
COCCCNC(=O)[C@@H](Cc1ccccc1)NC(=O)CC[C@H]1O[C@@H](n2ccc(=O)[nH]c2=O)[C@H](O)[C@@H]1O,-0.1,-3.8%
CCc1nc2c(OCc3ccccc3)cccn2c1N(C)C(=O)c1ccco1,-0.7,0.3%
O=c1[nH][nH]c2c1[C@H](c1ccc(Cl)cc1)O[C@H](C1CCCC1)C2,-0.7,-0.2%

Next section:
structure,TRPML1 agonist,ClpP mod
COc1cc2cc(C#N)c(SCC(=O)OC(C)C)nc2cc1OC,-0.7,-2.6%
COc1ccc(-c2nn3c(-c4cc(C)[nH]n4)nnc3s2)cc1,-0.6,2.0%
CC(=O)Nc1cc(-c2ccccc2)cn2c(-c3ccc(F)c(Cl)c3)cnc12,-0.2,?
COc1cccc(C(C)(O)c2nc(-c3cccs3)cs2)c1 (stereo not given),-0.5,1.0%
